Screening results (PubChem)
MLL AF4-AF9 inh: blocks AF4 peptide binding to human AF9; P42568; AlphaScreen, biotin-AF4 peptide binding to FLAG-AF9; inhibition, % at 10 µM; 0.47% of 350,000 active; AID 651704;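 active means every replicate reaching a set inhibition limit, whatever the replicate mean, cut at about 25% in these data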;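 further: 0% = plate neutral control median and 100% = total signal loss; the record names both 10 and 1 µM as test concentration; the first replicate is given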
Target sequence (P42568 whole entry, looked up): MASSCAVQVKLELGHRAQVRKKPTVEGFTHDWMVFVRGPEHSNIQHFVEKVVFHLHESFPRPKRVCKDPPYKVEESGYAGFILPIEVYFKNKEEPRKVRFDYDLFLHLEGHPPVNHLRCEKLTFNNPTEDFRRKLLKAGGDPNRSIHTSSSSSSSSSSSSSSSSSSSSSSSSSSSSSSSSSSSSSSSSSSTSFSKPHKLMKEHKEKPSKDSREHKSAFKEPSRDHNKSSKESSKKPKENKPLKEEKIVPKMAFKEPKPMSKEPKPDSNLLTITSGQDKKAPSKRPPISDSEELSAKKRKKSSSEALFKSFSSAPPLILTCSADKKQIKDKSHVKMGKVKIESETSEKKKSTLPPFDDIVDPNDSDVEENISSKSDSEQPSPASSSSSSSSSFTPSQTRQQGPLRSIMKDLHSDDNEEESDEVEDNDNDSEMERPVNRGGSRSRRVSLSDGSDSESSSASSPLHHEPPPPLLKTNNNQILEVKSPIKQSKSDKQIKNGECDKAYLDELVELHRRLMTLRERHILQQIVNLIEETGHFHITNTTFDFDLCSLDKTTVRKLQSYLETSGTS
rRNA inh HTS: inhibitors of bacterial rRNA selective over humanized ribosomes; E. coli WT GFP vs humanized-ribosome RFP mutants, fluorescence, 24 h; hits give low values; DMSO median 0, no signal -100; GFP signal change (wild-type ribosome), % (concentration not given with the values); 1.6% of 350,000 active;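 active means significant combined selectivity score with lowered wild-type GFP, culture density cut under 30%, mutant RFP and density less affected; inactive means any of these conditions unmet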; further: one replicate is shown; some compounds called inactive have numbers as strong as hits
rRNA inh HTS OD600: also measured in rRNA inh HTS; calls as there; OD600 change, %; measured here: OD600 growth;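 optical density of the mix in the first replicate; 0 = DMSO median and -100 = no signal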
rRNA inh HTS RFP: also measured in rRNA inh HTS; calls as there; RFP signal change, %; measured here: RFP humanized mutant strains;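 first replicate; 0 = DMSO median and -100 = no signal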
Starred values were filed as active, the others as inactive.

No.	mol	MLL AF4-AF9 inh	rRNA inh HTS	rRNA inh HTS OD600	rRNA inh HTS RFP
1	CO[C@H]1CN(C)C(=O)c2cc(NS(=O)(=O)c3ccc(Oc4ccccc4)cc3)ccc2OC[C@@H](C)NC[C@@H]1C	-5.3	-4	-1	5.3
2	O=C(Nc1ccccc1F)N[C@@H]1CC[C@@H](CCNS(=O)(=O)c2ccc(F)cc2)O[C@H]1CO	-1.3	0	-1	1.3
3	CO[C@@H]1CC[C@@H]2CCOc3ccc(C#N)cc3C(=O)N(C)C[C@@H](c3ccccc3)CC(=O)N(C)C[C@@H]1O2	-0.4	0	5	-1.5
4	COc1ccc(CN(C)C[C@H]2Oc3ccc(NC(=O)Nc4ccc(OC)cc4)cc3CC(=O)N([C@@H](C)CO)C[C@@H]2C)cc1	6.4	-5	-11	11
5	O=C(C[C@@H]1CC[C@H]2[C@@H](COC[C@@H](O)CN2C(=O)c2ccccc2)O1)NCc1ccc(-c2ccccc2)cc1	1.1	4	-6	6.0
6	O=C(c1cccc(F)c1)N1C[C@@H]2[C@H](c3ccccc31)[C@@H](CO)N2C(=O)c1ccc(F)cc1	-2.7	-1	-3	-3.0
7	C[C@H](CO)N1C[C@H](C)[C@H](CN(C)C(=O)Nc2ccc(F)cc2)Oc2ccc(NC(=O)CCN3CCOCC3)cc2CC1=O	-2.3	0	0	-1.7
8	N#C[C@@H]1[C@@H](c2ccc(C3=CCCCC3)cc2)[C@H](CO)N1C(=O)NC1CCCC1	-7.4	1	1	0.2
9	COc1cccc(C(=O)N2C[C@H]3[C@@H](c4ccccc42)[C@H](CO)N3Cc2ccccc2Cl)c1	3.8	-24	-26	-1.9
10	COC(=O)[C@H]1[C@H](CO)[C@H]2Cn3c(ccc(/C=C/c4ccccc4)c3=O)[C@H]2N1CCC(F)(F)F	-16	-7	-4	-0.9
11	CCCN1[C@H](CO)[C@H](c2ccc(C3=CCCCC3)cc2)[C@@H]1CNC(=O)COC	-0.9	0	2	1.6
12	C[C@@H]1CN([C@H](C)CO)S(=O)(=O)c2ccc(C#CC(C)(C)O)cc2O[C@H]1CN(C)Cc1ccncc1	2.5	-2	-7	1.4
13	C[C@@H]1CN([C@@H](C)CO)C(=O)c2cccc(NS(=O)(=O)c3ccccc3)c2O[C@@H]1CN(C)Cc1ccc(C(=O)O)cc1	2.4	5	-8	-2.5
14	C[C@H](c1ccccc1)N1C[C@@H](COCc2ccccc2)Oc2cc(N3CC[C@H](O)C3)ccc2S1(=O)=O	-0.8	-1	-13	-5.1
15	O=C(N[C@H]1C=C[C@H](CC(=O)N2CCOCC2)O[C@@H]1CO)c1ccccn1	-3.3	2	2	-0.4
16	Cc1ccc(S(=O)(=O)Nc2ccc3c(c2)C(=O)N([C@@H](C)CO)C[C@H](C)[C@@H](CN(C)C(=O)c2ccccc2)OCCCC[C@@H](C)O3)cc1	1.7	0	-9	3.8
17	C[C@H](CO)N1C[C@H](C)[C@@H](CN(C)Cc2ccncc2)Oc2ncc(C#CC3CCCC3)cc2C1=O	8.1	2	10	3.3
18	C[C@@H]1CN([C@@H](C)CO)S(=O)(=O)c2ccc(-c3ccncc3)cc2O[C@@H]1CN(C)C(=O)c1cccc(F)c1	0.0	-7	-1	0.0
19	COc1ccc(S(=O)(=O)Nc2ccc3c(c2)C(=O)N([C@H](C)CO)C[C@@H](C)[C@@H](CN(C)C)O3)cc1	-4.3	3	2	-0.6
20	C=CCn1c(SCCN)nnc1-c1cccc(S(=O)(=O)N2CCOCC2)c1	0.0	4	12	0.0
21	CO[C@H]1CN(C)C(=O)c2cc(NC(=O)Nc3ccc(F)cc3)ccc2OC[C@H](C)NC[C@H]1C	-5.5	-1	-3	-0.2
22	CC1(C(=O)NCc2ccccc2)CN(S(C)(=O)=O)CC(=O)N1CCc1ccc(O)cc1 (configuration not stated)	1.2	3	6	-4.1
23	CN(C)CC(=O)N1CC2(C1)[C@H](c1ccccc1)[C@H](CO)N2Cc1cc(F)ccc1F	1.1	-2	1	0.3
24	Cc1noc(C)c1NC(=O)Nc1cccc2c1O[C@H](CN(C)Cc1ccc(Cl)c(Cl)c1)[C@@H](C)CN([C@@H](C)CO)C2=O	-3.2	-11	-22	-0.3
25	C[N+](C)(C)CCN1CCc2ccccc21	-0.4	18	13	0.2
26	Cc1noc(C)c1NC(=O)N(C)C[C@@H]1Oc2ccc(NS(=O)(=O)c3ccc(F)cc3)cc2C(=O)N([C@@H](C)CO)C[C@@H]1C	-0.9	2	-17	-0.4
27	CO[C@@H]1CN(C)C(=O)c2cc(NC(=O)Nc3ccccc3)ccc2OC[C@@H](C)N(C(=O)Nc2c(C)noc2C)C[C@H]1C	-0.9	-7	-4	-0.7
28	C=CCN1C[C@H](COC(=O)c2ccc(C)c(C)c2)Oc2cccc(F)c2S1(=O)=O	-1.0	-6	-7	0.8
29	Cc1ccc(S(=O)(=O)N(C)C[C@@H]2OCCCC[C@@H](C)Oc3ccc(NS(=O)(=O)c4ccc(Cl)cc4)cc3C(=O)N([C@H](C)CO)C[C@@H]2C)cc1	-0.1	1	6	1.1
30	C[C@@H]1CN([C@@H](C)CO)S(=O)(=O)c2ccc(C3=CCCC3)cc2O[C@@H]1CN(C)C(=O)c1ccccc1	0.2	-6	-19	9.5
31	C[C@@H]1CCCCO[C@H](CN(C)C(=O)CCCN(C)C)[C@@H](C)CN([C@H](C)CO)C(=O)c2cc(NS(=O)(=O)c3ccc(Cl)cc3)ccc2O1	-1.7	2	0	2.4
32	COc1ccccc1CNC(=O)C[C@@H]1C[C@@H]2c3cc(NC(=O)Nc4ccccc4F)ccc3O[C@@H]2[C@H](CO)O1	-0.5	-2	2	-4.5
33	C[C@@H]1CN([C@H](C)CO)C(=O)c2cc(-c3ccncc3)cnc2O[C@H]1CN(C)C(=O)c1cccc(F)c1	-0.1	-2	-2	-1.2
34	C[C@@H]1CCCCO[C@@H](CN(C)C(=O)C2CCCCC2)[C@@H](C)CN([C@H](C)CO)C(=O)c2cc(NC(=O)Cc3ccccc3)ccc2O1	-1.7	4	-3	-0.2
35	CCC(=O)N(C)C[C@H]1Oc2cc(-c3cncnc3)ccc2S(=O)(=O)N([C@H](C)CO)C[C@@H]1C	2.5	6	5	-1.2
36	O=C(C[C@@H]1CC[C@H]2NC[C@H](O)COC[C@@H]2O1)Nc1ccccc1	-2.0	7	11	-4.9
37	COc1ccc2c3c([nH]c2c1)[C@H](CO)N(C(=O)C1CCCCC1)CC31CN(C(=O)c2ccncc2)C1	1.8	-2	-6	-0.1
38	C[C@H](CO)N1C[C@H](C)[C@@H](CN(C)S(=O)(=O)c2ccc(Cl)cc2)Oc2ccc(NC(=O)Nc3ccc(F)cc3)cc2C1=O	-2.3	-3	1	4.2
39	COc1ccc(NC(=O)Nc2ccc3c(c2)C(=O)N([C@@H](C)CO)C[C@H](C)[C@@H](CN(C)S(=O)(=O)c2cccs2)O3)cc1	3.5	-4	-7	-1.1
40	COCC(=O)N1C[C@@H](C)[C@H](OC)CN(C)C(=O)c2ccc(NC(=O)Nc3ccccc3)cc2OC[C@@H]1C	-2.0	-2	1	0.6

The final 5 records of the part before are carried over, then new ones follow:
No.	mol	MLL AF4-AF9 inh	rRNA inh HTS	rRNA inh HTS OD600	rRNA inh HTS RFP
36	O=C(C[C@@H]1CC[C@H]2NC[C@H](O)COC[C@@H]2O1)Nc1ccccc1	-2.0	7	11	-4.9
37	COc1ccc2c3c([nH]c2c1)[C@H](CO)N(C(=O)C1CCCCC1)CC31CN(C(=O)c2ccncc2)C1	1.8	-2	-6	-0.1
38	C[C@H](CO)N1C[C@H](C)[C@@H](CN(C)S(=O)(=O)c2ccc(Cl)cc2)Oc2ccc(NC(=O)Nc3ccc(F)cc3)cc2C1=O	-2.3	-3	1	4.2
39	COc1ccc(NC(=O)Nc2ccc3c(c2)C(=O)N([C@@H](C)CO)C[C@H](C)[C@@H](CN(C)S(=O)(=O)c2cccs2)O3)cc1	3.5	-4	-7	-1.1
40	COCC(=O)N1C[C@@H](C)[C@H](OC)CN(C)C(=O)c2ccc(NC(=O)Nc3ccccc3)cc2OC[C@@H]1C	-2.0	-2	1	0.6
41	C[C@H](CO)N1C[C@H](C)[C@H](CN(C)S(C)(=O)=O)Oc2ncc(C#CC3(O)CCCC3)cc2C1=O	-3.4	-3	2	0.5
42	C[C@H]1CN([C@@H](C)CO)C(=O)c2cc(NS(=O)(=O)c3ccc(F)cc3)ccc2O[C@H]1CN(C)C(=O)NC1CCCCC1	-1.2	-2	-6	1.9
43	C[C@@H]1CN([C@H](C)CO)C(=O)c2cc(-c3cccc(F)c3)cnc2O[C@H]1CN(C)Cc1cncnc1	-7.4	-2	-4	-3.2
44	COc1ccc(S(=O)(=O)N(C)C[C@@H]2OCCCC[C@@H](C)Oc3ccc(NC(=O)Nc4ccc(C(F)(F)F)cc4)cc3C(=O)N([C@H](C)CO)C[C@@H]2C)cc1	-11	6	26	-1.3
45	C[C@@H]1CN([C@@H](C)CO)C(=O)Cc2cc(NC(=O)c3ccncc3)ccc2O[C@@H]1CN(C)S(=O)(=O)c1ccc(F)cc1	-0.2	-1	5	1.7
46	C/C=C/c1ccc2c(c1)O[C@H](CN(C)C(=O)COC)[C@H](C)CN([C@@H](C)CO)S2(=O)=O	-6.7	0	0	-3.3
47	CC(C)NC(=O)Nc1ccc2c(c1)C(=O)N([C@@H](C)CO)C[C@@H](C)[C@H](CN(C)Cc1ccc(C(F)(F)F)cc1)O2	-0.6	3	0	-2.2
48	O=C(C[C@@H]1CC[C@@H]2[C@H](COC[C@H](O)CN2C(=O)c2ccccc2F)O1)N1CCOCC1	-1.9	4	7	-0.6
49	O=C(C[C@H]1CC[C@H](NC(=O)Cc2ccccn2)[C@@H](CO)O1)NCCc1ccncc1	1.0	1	-1	0.6
50	CN1CCCC1(C)C(=O)NCc1ccc(F)cc1Cl (configuration not stated)	-0.3	7	-8	5.5
51	O=C(NC1CCCC1)N1CC2(C1)[C@H](c1ccccc1)[C@@H](CO)N2CC1CCOCC1	-1.0	2	4	-2.8
52	COc1ccc(NC(=O)N[C@H]2CC[C@@H](CCNC(=O)Cc3ccncc3)O[C@@H]2CO)cc1	0.8	-1	5	-1.6
53	C[C@@H]1CN([C@@H](C)CO)C(=O)c2cc(NC(=O)C3CCCCC3)ccc2O[C@@H](C)CCCCO[C@@H]1CN(C)CC1CCCCC1	-5.8	-12	-31	25
54	CCCC(=O)N1CCC2(CC1)CN(C(=O)CN1CCOCC1)[C@H](CO)c1c2c2ccc(OC)cc2n1C	2.2	2	1	0.8
55	COc1ccc(CN(C)C[C@@H]2OCc3cnnn3CCCC(=O)N([C@@H](C)CO)C[C@@H]2C)cc1	0.7	-2	1	0.4
56	C[C@@H](NC(=O)C[C@@H]1CC[C@H]2[C@H](COc3ccc(NC(=O)C4CCOCC4)cc3C(=O)N2C)O1)c1ccccc1	-0.5	4	5	-0.8
57	O=C(Nc1ccc(F)cc1)N1CCCCN2[C@H](CO)[C@@H](c3ccc(C#Cc4ccccc4)cc3)[C@@H]2C1	-17	4	11	5.7
58	C[C@H]1CN([C@@H](C)CO)C(=O)Cc2cc(NS(=O)(=O)c3ccc(Cl)cc3)ccc2O[C@H]1CN(C)S(=O)(=O)c1ccccc1	2.0	-2	-10	-0.1
59	C[C@H](CO)N1C[C@H](C)[C@@H](CN(C)Cc2ccc(Oc3ccccc3)cc2)Oc2ccc(NC(=O)c3ccncc3)cc2C1=O	3.5	-4	-15	7.7
60	O=C(c1ccc(F)cc1)N1CC(=O)N2[C@H](CO)[C@H](c3ccc(C#CC4CC4)cc3)[C@@H]2C1	0.2	2	-1	-2.2
61	O=C(O)C1=CCC(c2ccc(Cl)c(Cl)c2)N(S(=O)(=O)c2ccc(F)cc2)C1c1cccc(F)c1 (configuration not stated)	-2.8	-42	-73	-13
62	CNC(=O)C[C@@H]1CC[C@@H]2[C@H](COC[C@@H](O)CN2Cc2ccccc2F)O1	1.3	0	6	0.3
63	CN(C)CCCNC(=O)[C@H]1[C@H](CO)[C@H]2Cn3c(ccc(C4=CCCC4)c3=O)[C@@H]1N2Cc1cocn1	2.2	2	4	-1.9
64	C[C@@H]1CN([C@H](C)CO)S(=O)(=O)c2ccc(/C=C/c3ccccc3)cc2O[C@@H]1CN(C)C(=O)c1ccc2c(c1)OCO2	3.4	-5	-4	3.7
65	CNc1ccc(-c2cccc(C(C)=O)c2)cn1	-0.6	-4	-7	-3.8
66	C[C@H](CO)N1C[C@H](C)[C@@H](CN(C)Cc2ccc3c(c2)OCO3)Oc2c(NC(=O)C3CCOCC3)cccc2C1=O	0.5	-1	3	1.7
67	C[C@H](CO)N1C[C@H](C)[C@H](CN(C)Cc2ccc(C(=O)Nc3ccccc3N)cc2)Oc2ccc(NC(=O)Nc3ccccc3)cc2C1=O	-3.9	-1	3	-2.3
68	CCCC#Cc1cnc2c(c1)C(=O)N([C@H](C)CO)C[C@@H](C)[C@@H](CN(C)C(=O)Nc1ccccc1F)O2	-1.3	1	1	-1.8
69	Cc1ccc(S(=O)(=O)N[C@H]2CC[C@H](CCNC(=O)C3CCC3)O[C@@H]2CO)cc1	-3.0	0	-5	-2.8
70	CC(C)CC#Cc1ccc([C@@H]2[C@@H](CO)N3C(=O)CN(C(=O)Cc4ccccc4)C[C@@H]23)cc1	2.2	-38*	-19*	-0.9*

An excerpt. The share of hits here may be higher or lower than overall.
